# Screens: PubChem BioAssay, several laboratories
# Vif A3G = HIV-1 Vif–A3G interaction blockers – biochemical, TR-FRET, GST-Vif 1-94, biotin-A3G peptide, dose response retest, primary screen (AID 1117319). TR-FRET GST-Vif / biotin-A3G peptide binding; higher % means a stronger effect; test concentration not given here; strong numbers were not always called active. inhibition, %, or IC50 in µM where a hit was titrated. 0.57% of 260,000 active;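 active = above the screen mean plus three standard deviations and confirmed in dose response; inconclusive = results disagree or hit not tested in dose response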;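 also: Vif residues 1-94 fused to GST binding biotinylated APOBEC3G peptide 110-148; 0% = full assay without inhibitor and 100% = GST in place of GST-Vif; retest series ran down from 100 µM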
# LANA-H2B inh = blocks KSHV LANA binding to histone H2A/H2B | cell-free LANA-H2A/H2B peptide, fluorescence polarization | inhibition, % (no concentration beside the values) | 0.6% of 320,000 active | AID 2629; in the data active = inhibition mostly above about 10%, no sharp cut-off; inactive = mostly below about 6.7%;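 also: stock transfer was 7.5 nL into about 10 µL; 0% = median of vehicle wells and 100% = median of positive control wells; one replicate is shown; the record names a cut of 25% in any replicate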
# Target sequence (Q9QR71 whole entry, looked up): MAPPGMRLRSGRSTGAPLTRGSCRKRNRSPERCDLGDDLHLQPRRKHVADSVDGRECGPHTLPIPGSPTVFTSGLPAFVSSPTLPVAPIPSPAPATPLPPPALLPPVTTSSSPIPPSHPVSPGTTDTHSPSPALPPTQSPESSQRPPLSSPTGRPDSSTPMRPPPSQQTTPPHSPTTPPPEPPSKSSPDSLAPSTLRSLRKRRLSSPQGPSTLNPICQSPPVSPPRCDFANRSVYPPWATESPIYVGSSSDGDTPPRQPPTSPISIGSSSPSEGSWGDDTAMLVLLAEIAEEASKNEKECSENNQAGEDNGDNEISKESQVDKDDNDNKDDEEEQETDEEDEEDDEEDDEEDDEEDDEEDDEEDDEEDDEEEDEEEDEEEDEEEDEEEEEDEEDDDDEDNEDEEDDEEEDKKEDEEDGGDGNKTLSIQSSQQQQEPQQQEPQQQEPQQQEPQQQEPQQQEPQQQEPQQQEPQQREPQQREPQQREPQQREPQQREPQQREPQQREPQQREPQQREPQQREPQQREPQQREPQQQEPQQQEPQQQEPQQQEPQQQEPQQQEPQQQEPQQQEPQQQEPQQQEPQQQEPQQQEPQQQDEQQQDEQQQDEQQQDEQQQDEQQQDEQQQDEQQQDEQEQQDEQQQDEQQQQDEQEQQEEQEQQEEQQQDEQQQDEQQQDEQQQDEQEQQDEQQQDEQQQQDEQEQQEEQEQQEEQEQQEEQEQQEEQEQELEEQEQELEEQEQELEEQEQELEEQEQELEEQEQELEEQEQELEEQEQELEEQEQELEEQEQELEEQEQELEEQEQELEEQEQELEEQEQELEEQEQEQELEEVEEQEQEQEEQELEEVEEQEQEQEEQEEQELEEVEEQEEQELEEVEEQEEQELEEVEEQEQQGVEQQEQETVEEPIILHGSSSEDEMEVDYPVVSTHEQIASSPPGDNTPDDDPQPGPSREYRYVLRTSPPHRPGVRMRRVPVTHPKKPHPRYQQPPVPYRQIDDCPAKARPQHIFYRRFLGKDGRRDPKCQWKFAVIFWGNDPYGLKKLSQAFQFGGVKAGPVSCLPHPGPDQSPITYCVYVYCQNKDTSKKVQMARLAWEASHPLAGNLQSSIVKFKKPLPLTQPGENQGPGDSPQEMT
# B2AR ag = human beta-2 adrenergic receptor agonism by FAP; response, % (concentration not given with the values); Am2.2-beta2AR cells, FAP receptor internalization, flow cytometry; reference of the scale not given here; 0.43% of 340,000 active; P07550;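 active = response above a set limit, near 3 SD of response in nonfluorescent compounds, cut at about 42% in these data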;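 also: stock transfer was 100 nL into about 11 µL; a reference agonist was the positive control; negative values mostly stem from fluorescent compounds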
# E coli growth = blocks Escherichia coli growth; OD600, 23 h; stronger effect = lower value; OD600 absorbance (no concentration beside the values); 0.21% of 330,000 active; AID 1053175;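 active = OD600 absorbance below the run mean of sample wells minus 3.6 SD, in any replicate, cut at about 0.56 in these data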;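 also: stock transfer was 300 nL into about 60 µL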
# UCH37 inh = human UCH37 deubiquitinating enzyme inhibition; purified proteasome/UCH37, Ub-AMC cleavage fluorescence; 0.33% of 330,000 active; AID 588478; inhibition, % (concentration not given with the values); Q9Y5K5;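 active = mean of two replicates above 20%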;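 also: 0% = compound-free wells with enzyme and 100% = wells lacking proteasome; stock transfer was 100 nL into about 20 µL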
#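 assay system = human UCH37 enzyme supplied as purified proteasome complex | amount = proteasome at 0.15 nM in the dispensed enzyme solution | schedule = 30 min compound-proteasome preincubation then 25 min substrate reaction, room temperature | measured by = fluorescence, ex 355 nm, em 460 nm | benchmarks = no-proteasome wells (full inhibition) and compound-free wells (no inhibition)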
# A1 inh = inhibitors of the anti-apoptotic protein A1, read as caspase activation; 0.066% of 330,000 active; caspase activation, % (no concentration beside the values); MEF A1-2A-BIM cells, Caspase-Glo 3/7 luminescence, 3 h; percent of clofoctol response, vehicle zero;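 active = over half of replicate activation scores above 10%, or exactly half above 10 with the replicate mean above 10; inconclusive = replicate mean below 10 yet half the replicates above 10; inactive = over half of replicates below 10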;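 also: wells of about 30 µL received 50 nL stock; many hits fall short of the cut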
# HNF4A DNA FP = change in binding of human HNF4 alpha to DNA | HNF4a-FITC DNA binding, fluorescence polarization, 1 h | activity change, % at 10 µM | 0.3% of 360,000 active; in the data active = activity change above about 30%, passing the limit was not always enough;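 also: controls were the assay level and a saturating level of protein; the project sought stronger binding though the title names inhibitors; some compounds called inactive have numbers as strong as hits; positive values seem to mean higher polarization but the record does not say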
# * hit, by the source's call; i = inactive; ? = inconclusive; · = no result given; & = joins results of further samples.
mol	Vif A3G	LANA-H2B inh	B2AR ag	E coli growth	UCH37 inh	A1 inh	HNF4A DNA FP
O=C(NC(=S)Nc1ccc(N2CCOCC2)c(Cl)c1)C(c1ccccc1)c1ccccc1	1%	-1.7	7	0.82	4.3	0.3	1.4
CCOC(=O)C1=C(COC(=O)CCNS(=O)(=O)c2ccc(C)c(C)c2)NC(=O)NC1C (stereo not drawn)	-5%	0.0	10	0.67	1.3	0.6	-4.6
CC(C)C(=O)NC(=S)Nc1ccccc1C(=O)NC1CCCCC1	-6%	-3.5	2	0.66	-1.7	1.3	0.7
COc1ccc(C2CC(c3ccc(OC)cc3O)=NN2C(=O)c2ccccc2)cc1 (stereo not drawn)	-47%	-1.5	-5	0.66	-2.6	0.1	-1.2
O=C(COc1ccccc1)N1CCN=C1c1ccccc1	-4%	-2.4	8	0.7	-0.7	1.2	-0.2
O=C(C1CCC(CNS(=O)(=O)c2cccc3cccnc23)CC1)N1CCCC1 (stereo not drawn)	1%	3.7	-5	0.69	4.1	0.4	1.4
O=C(Cc1cc(=O)[nH][nH]1)N/N=C/c1c(F)cccc1Cl	2%	0.3	-2	·	·	1.0	2.6
CCOc1ccc2nc(NC(=O)Cc3cccs3)sc2c1	11%	-9.8	-11	0.69	0.5	-0.2	-2.9
O=S(CCc1ccncc1)Cc1ccccc1 (stereo not drawn)	-6%	0.4	1	0.73	0.1	-0.1	-5.8
COc1cccc(/C=C/C(=O)NCc2ccc(S(N)(=O)=O)cc2)c1	7%	1.7	3	0.66	-8.4	0.6	-0.6
O=C(CSc1nnc2scc(-c3ccccc3)n12)N1CCN(Cc2ccccc2)CC1	8%&-15%	-8.6	-8	0.64	1.5	0.4	-2.9
COc1ccccc1N1CCN(C(CNS(=O)(=O)c2ccc(C)cc2)c2cccnc2)CC1 (stereo not drawn)	?	-5.0	-2	0.76	1.7	0.0	-0.8
Cn1c(=O)c2c(ncn2CC(=O)N2CCN(S(=O)(=O)c3ccccc3)CC2)n(C)c1=O	4%	-4.1	3	0.69	1.4	-0.1	-1.8
CCCCSc1ncnc2c1ncn2C1CCCCO1 (stereo not drawn)	-2%	·	1	0.72	1.1	·	2.0
Cc1cc(=O)[nH]c(N/N=C/c2ccccc2C(F)(F)F)n1	-9%	-1.6	4	·	·	0.8	-3.1
CCn1c(=O)c2c(n3cnnc13)-c1ccccc1CC21CCCCC1	-1%	-1.0	-10	0.63	-1.9	1.8	-1.6
COc1cc(C(=O)Nc2ccc3c(c2)Cc2cc(NC(=O)c4cc(OC)c(OC)c(OC)c4)ccc2-3)cc(OC)c1OC	·	·	10	·	-4.7	1.0	0.9
Nc1cc(C(=O)O)c(Oc2ccc(Cl)cc2Cl)cc1C(=O)O	12%	-1.1	10	0.69	i	0.0	-8.6
Cc1ccc(CNC(=O)/C=C/C(=O)O)cc1	-2%	-1.9	1	0.67	0.4	0.1	0.1
O=C(NC1CC1)[C@@H]1CSC2c3ccccc3C(=O)N21 (stereo partly drawn)	·	2.8	-8	·	·	0.1	-7.3
CCOc1ccc(-c2nnc3ccc(SCC(=O)Nc4nc5ccccc5s4)nn23)cc1	·	-0.5	6	0.62	-31	1.3	4.6
O=[N+]([O-])c1ccc(O)c(Nc2ncnc3ccccc23)c1	1%	-1.6	5	0.75	5.7	0.2	-21
O=C(C1=NN(c2ccccc2)C2C(=O)N(c3ccccc3Cl)C(=O)C12)c1ccccc1 (stereo not drawn)	·	4.7	11	·	-6.3	0.1	9.8
O=S(=O)(c1ccc2nc(COc3ccc(Cl)cc3Cl)[nH]c2c1)N1CCOCC1	-9%	-2.4	6	0.63	4.6	-0.4	-2.6
COc1cc(/C=N/n2nnnc2N)ccc1OCc1c(C)no[n+]1[O-]	-1%	3.0	9	·	·	1.1	-0.3
O=C/C(=C\Nc1ccc(Br)cc1)c1nc2ccccc2o1	·	3.7	-14	0.67	3.0	-0.4	-3.1
CCn1ncc(C(=O)Nc2ccccc2C)c1C	-6%	-0.7	-6	0.68	-3.0	-0.3	2.5
COc1ccccc1C(=O)Nc1cccc(-c2cn3ccsc3n2)c1	78%	·	·	0.7	0.8	·	·
CC1=NN(c2ccccc2)C(=O)C1N=Nc1ccc(C)cc1 (stereo not drawn)	·	3.5	·	0.7	3.8	-2.2	·
CC(=O)c1ccc(NC(=O)Nc2ccc(NS(=O)(=O)c3ccc(C)cc3)cc2)cc1	16%	1.8	0	0.72	-0.2	-0.8	-0.4
O=C(N/N=C/C(Cl)=C/c1ccc([N+](=O)[O-])cc1)C(=O)Nc1ccccc1C(=O)O	15%	-1.2	5	·	·	0.1	-5.5
O=C(NCC1CCCO1)c1cccc(NC(=O)c2cccs2)c1 (stereo not drawn)	·	-3.6	-10	0.69	1.2	-0.7	-3.6
CS(=O)(=O)N(CC(=O)N/N=C/c1cccs1)c1cccc(Cl)c1Cl	1%	-3.0	-6	·	·	-0.5	-4.2
O=C(CCC(=O)Nc1ccc(F)cc1)N/N=C/c1cccs1	2%	7.0	-1	·	·	0.1	0.1
CCN(c1ccccc1)S(=O)(=O)c1ccc(Cl)c(NC(=O)CSc2ncn[nH]2)c1	·	-3.8	6	0.7	2.1	-0.5	0.9
CCS(=O)(=O)N1CCC(C(=O)NC2CCCCC2)CC1	3%	3.1	-3	0.68	2.2	-0.5	-1.8
CN(CCCNC(=O)C1CCN(S(=O)(=O)N2CCC3(CC2)OCCO3)CC1)Cc1ccccc1	-7%&-6%	-2.4	-6	0.7	-0.7	0.4	-0.9
CC(C)(C)n1nc2c(c1NC(=O)COc1ccccc1F)CS(=O)(=O)C2	2%	-1.2	-1	0.66	5.7	-1.0	0.9
Cc1cc(O)c(/C=N/Nc2ccc(Cl)cc2)c(=O)o1	?	1.6	1	·	·	-0.6	2.8
N#Cc1ccc(C(=O)Nc2ccc3ccccc3c2)cc1	·	-7.3	11	0.67	-15	-8.0	0.3
CC1CCCC(N2CCN(C(=O)c3ccc([N+](=O)[O-])cc3)CC2)C1 (stereo not drawn)	·	-4.0	4	0.63	1.8	0.1	2.6
Cc1ccc2nc(Br)c3c(c2c1)OC(CBr)C3 (stereo not drawn)	·	2.2	-5	0.66	1.9	0.4	0.4
COc1ccc(-c2cc(C(=O)n3cnc4ccccc43)c3ccccc3n2)cc1	4%	·	0	0.73	-199	-1.5	-2.3
COCCCNC(=O)CN1CCN(Cc2ccccc2Cl)C1=O	-1%	7.1	-7	0.72	5.3	0.4	0.3
O=C(CCc1ccccc1)NCC(=O)N/N=C/c1ccc2c(c1)OCO2	18%	2.7	-5	·	·	-0.5	-4.0
CCC(C)N(C(=O)COC(=O)CNC(=O)c1ccccc1F)C1CCS(=O)(=O)C1 (stereo not drawn)	-2%	-1.3	-1	0.69	3.2	-0.6	2.1
CN(CC(=O)Nc1ccccc1Br)C(=O)CN(C)C1CCCCC1	-10%	·	-8	0.65	5.0	-0.3	-1.7
Cc1nnc(SCc2cccc(CSc3nnc(C)s3)c2)s1	-8%	-0.1	-12	0.68	0.4	-0.8	-1.8
COc1cc(-n2c(=O)c3ccccc3n(Cc3cccnc3)c2=O)cc(OC)c1OC	-8%	4.5	4	0.72	0.5	0.3	-0.5
CN1C(=O)C(CC(=O)Nc2ccc3c(c2)Cc2ccccc2-3)N(C)C1=O (stereo not drawn)	14%	-3.8	-11	0.73	5.6	0.8	4.3
COC(=O)c1ccc(C(=O)OC)nc1	-2%	0.0	4	0.69	2.4	0.6	-1.7
COc1ccc(CCNC(=O)c2cc(=O)c3ccc(C)cc3o2)cc1OC	-3%	-1.4	4	0.72	2.7	0.4	-4.7
Clc1ccccc1C1=Nn2c(nnc2-c2ccncc2)SC1	17%	-1.5	-7	0.71	1.7	-0.1	-1.0
CCOCCCNC(=S)N1CCCN(c2nc3cc(C)c(C)cc3cc2C#N)CC1	1%	4.9	-1	0.74	-36	0.0	5.6
CCc1ccccc1N1C(=O)C2CC=CCC2C1=O (stereo not drawn)	22%	1.7	3	0.68	-0.5	0.1	-7.5
COc1ccc(CNC(=O)CN(C)S(=O)(=O)c2ccc3c(c2)n(C)c(=O)c(=O)n3C)cc1	·	6.3	-2	0.63	1.5	-0.5	-3.9

# Next entries
mol	Vif A3G	LANA-H2B inh	B2AR ag	E coli growth	UCH37 inh	A1 inh	HNF4A DNA FP
O=C(CSc1ncn[nH]1)Nc1ccc2c(c1)CCC2	-4%	-7.1	4	0.65	-0.5	1.9	1.7
Cn1cnc(S(=O)(=O)Nc2ccc(OC(F)F)cc2)c1	-2%	1.5	-1	0.69	6.9	-0.3	0.7
CC1C(=O)N2CCCc3cc(NC(=O)C(=O)NCc4ccccn4)cc1c32 (stereo not drawn)	-3%	-1.5	-1	0.69	5.9	0.0	3.8
Cc1nc([N+](=O)[O-])cn1-c1nc2ccccn2c1[N+](=O)[O-]	5%	2.1	4	·	·	0.1	-3.1
Cc1sc2nc(SCc3ccc(C(=O)O)cc3)n(Cc3ccco3)c(=O)c2c1C	6%	-2.1	0	0.68	5.3	0.2	1.6
CCOC(=O)Nc1ccc2c(c1)N(C(=O)CN(C)C)c1ccccc1CC2	·	-2.5	-5	·	5.1	-0.1	-6.1
Cn1c(-c2ccc3ccccc3n2)[n+](C)c2ccccc21	?	-2.1	0	0.67	1.2	0.0	-2.9
O=C(CSc1ccc(Cl)cc1)N/N=C/c1ccc([N+](=O)[O-])o1	-1%	0.0	24	·	·	-0.1	0.9
CCn1cc(C(=O)Nc2ccc(F)c(F)c2)cn1	12%	-0.2	17	0.64	-2.1	0.5	2.1
COc1ccc(OC)c(CN2CCN(C(=O)CN3C(=O)NC4(CCCC4)C3=O)CC2)c1	-2%	-2.3	2	0.64	-0.6	-0.1	2.0
CCOc1cc(NC(=O)c2ccco2)c(OCC)cc1NC(=O)COc1ccccc1	-5%	2.8	-8	0.76	-54	0.3	2.5
COc1ccccc1OCCC(=O)OCC(=O)NC(=O)NC(C)(C)C	1%	1.5	8	0.72	4.1	0.2	-0.4
O=C(NC1CCCC1)c1cc2nc(-c3ccco3)cc(C(F)(F)F)n2n1	·	1.3	-9	0.7	-105	0.2	3.4
COc1ccc(CC(=O)NCCN2CCCC2)cc1	2%	0.0	5	0.67	4.6	0.9	-2.5
O=C(O)c1ccc(F)c(S(=O)(=O)Nc2ccccc2)c1	0%	4.7	3	·	·	-0.2	2.9
CCOC(=O)c1ccc(CSc2nncn2N)o1	1%	-2.4	1	0.7	3.4	1.8	0.8
Cc1ccc(-c2nc(-c3nccc4ccccc34)oc2-c2ccccc2)cc1	14%	-5.3	-4	·	·	-11	6.6
Brc1ccc(-c2csc(Nc3nc(-c4ccc(Br)cc4)cs3)n2)cc1	-4%	0.2	10	0.7	1.3	-0.2	2.8
CC(C)(C)NC(=O)C(c1ccc(F)cc1)N(Cc1cccs1)C(=O)c1ccc(CN2CCOCC2)o1 (stereo not drawn)	·	2.0	7	0.64	0.7	-0.1	-4.2
COC(=O)c1nnn(-c2nonc2N)c1-c1cccs1	?	4.8	20	0.69	0.0	-1.8	-2.3
Cc1ccc(N(Cc2cc3cc(C)ccc3[nH]c2=O)C(=O)c2cccs2)cc1	·	·	1	0.7	0.1	1.4	-2.6

# The order is random; overall some 2.1% were active at least once.
